26S disassembly = blocks ATP-dependent breakdown of the yeast 26S proteasome. anti-FLAG beads, GFP-proteasome disassembly, flow cytometry. inhibition of disassembly, % (no concentration beside the values). actives 0.2% (n = 24,000). AID 751;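 active means above 40%; inconclusive means likely self-fluorescent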;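 further: plate controls were ATP control with full disassembly for no effect and ATP-gamma-S intact proteasomes for full effect; higher percent means more bead fluorescence retained so stronger block of disassembly; stock transfer was 100 nL into about 10 µL; wells with too few beads may also be inconclusive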
VCAM-1 rise = enhancers of VCAM-1 display on endothelial cells, cell-based, plate reader, pooled HUVEC, TNFa stimulus (AID 455). actives 0.2% (n = 10,000). HUVEC TNFa-induced VCAM-1 immunofluorescence, plate reader; numbers were filed only for top-ranked candidate wells. augmentation, % at 5 µM;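 active means a compound raising TNF-alpha-driven VCAM-1 surface staining, with its hit status upheld on visual or statistical review; inactive means the rest, including hits rejected on review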;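 further: 0% = TNFa with vehicle and 100% = strongest image-checked hit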
* hit, by the source's call; i = inactive; ? = inconclusive; . = not tested or not shown.

SMILES	26S disassembly	VCAM-1 rise
OCCN1CCN(C(c2cccs2)c2ccc3cccnc3c2O)CC1 (stereo unspecified)	4.9	.
Cc1nc2ccccc2c2oc(C(=O)N3CCN(C(=O)c4ccco4)CC3)cc12	0.5	i
CC(C)Cn1c(=O)c2c(c3ccccc31)OC(C)C(=O)N2 (stereo unspecified)	0.3	.
CC(C)OC(=O)c1c(NC(=O)CCn2nnc3ccccc32)sc2c1CCCC2	-0.5	.
CC(=O)NC1(C(F)(F)F)NC(=O)N(CC(C)C)C1=O (stereo unspecified)	0.3	i
COc1cc(-n2nc(C)c3c2OC(N)=C(C#N)C3c2ccccc2)c(Cl)c(Br)c1O (stereo unspecified)	5.0	i
CCNC(=O)Cn1cnc2c1c(=O)n(C)c(=O)n2C	-5.9	i
CC(C)(C)c1ccc(O)c(N)c1	-3.1	i
COCc1nnc(NC(=O)c2ccc(S(=O)(=O)N3CCCCCC3)cc2)o1	-4.1	.
CCN(CCNC(=O)Cn1cc2c(n1)CCCC2)c1ccccc1	-7.1	.
O=C(NCc1ccc2c(c1)OCO2)c1cccc(N2CCCC2=O)c1	2.1	.
Cc1ccc2cc(C(c3nnnn3CC3CCCO3)N3CCc4ccccc4C3)c(=O)[nH]c2c1 (stereo unspecified)	7.8	i
COc1ccc(OC)c(CCNC(=O)CS(=O)(=O)Cc2nc(-c3ccc(C)cc3)oc2C)c1	-0.1	.
COc1ccc(Cl)cc1NC(=O)CSc1nnc(Cn2c(=O)sc3ccccc32)n1C	-1.0	.
O=C(CN(C(=O)CCNC(=O)c1ccco1)c1ccccc1)NC1CCCC1	-3.2	i
CCNC(=O)CC(=O)Nc1ccccc1C(=O)O	0.5	i
Cc1cccc(-c2nsc(SCC(=O)Nc3cc(C)on3)n2)c1	1.5	.
CCOC(=O)C1C(=O)NC(SCC(=O)Nc2nccs2)=C(C#N)C1c1ccccc1OCC (stereo unspecified)	1.9	i
CCOc1ccccc1C1N(c2ccc(OC)cc2)C(=O)C2CCCN21 (stereo unspecified)	5.4	.
COc1ccc(-c2nc(N3CCOCC3)nc3n[nH]c(N)c23)cc1	-0.8	.
Cc1ccc2cc3cc(C(=O)NCCC(C)C)oc3nc2c1	-1.2	.
Cc1ccccc1OCCCN1C(=O)C(=O)c2cccc(C)c21	0.0	i
CCOC(=O)N1CCN(c2cc(NCCC(=O)O)c3c4c(onc24)-c2ccccc2C3=O)CC1	-3.0	.
CCOC(=O)C1CCN(C(=O)Nc2ccc3snnc3c2)CC1	2.5	i
COc1cc(=O)[nH]c(SCc2c(F)c(F)c(F)c(F)c2F)n1	-1.2	i
O=C(Nc1ccc(Cl)c(Cl)c1)N1CCSC1c1ccco1 (stereo unspecified)	-1.4	.
O=C(CCNS(=O)(=O)c1cccc2nonc12)NCCc1ccc(Cl)cc1	-0.3	.
CN(C)S(=O)(=O)c1ccc(C(=O)Nc2ccccc2C(=O)O)cc1	-0.2	i
COC(=O)c1ccccc1NC(=O)c1noc2c1CCC2	-0.4	i
COCCCNC(=O)C1CCC(=O)N1Cc1ccccc1Cl (stereo unspecified)	0.6	.
O=C(NCc1cccnc1)c1ccccn1	0.9	i
Cc1ccc(C)c(N2CCN(C(=O)CCc3nc4ccccc4[nH]3)CC2)c1	-0.6	.
C=CCc1ccccc1OCC(O)CN1CCN(C(=O)OCC)CC1 (stereo unspecified)	-1.4	.
COc1cc(S(=O)(=O)N2CCC(N3CCCCC3)CC2)ccc1-n1cnnn1	0.7	i
CCOc1ccc(-c2nnn(CC(=O)N3CCN(c4ccc(F)cc4)CC3)n2)cc1OCC	-1.2	i
CCOc1ccc(S(=O)(=O)N2CCC(C(N)=O)CC2)c2ccccc12	-0.5	.
COc1ccccc1CNC(=O)CNC(=O)Cn1cnc2ccccc2c1=O	-0.8	.
O=C(Nc1ccc(Cl)cc1)c1ccsn1	3.7	.
O=C(C1CC1)N1CCc2cc(Br)cc(S(=O)(=O)NCc3ccc4c(c3)OCO4)c21	-0.1	.
CC(C)(C)C(=O)OCCn1c(=O)c2cc3c(=O)n(CCOC(=O)C(C)(C)C)c(=O)c3cc2c1=O	2.2	.
COCCN(CCOC)S(=O)(=O)c1ccc(C(=O)Nc2nnc(C)o2)cc1	1.3	.
COc1cc(-n2c(=O)c3ccccc3n(Cc3cccnc3)c2=O)cc(OC)c1OC	-1.1	.
Cn1c(=O)c2cc(S(=O)(=O)NCCC(=O)NCCC3=CCCCC3)ccc2n(C)c1=O	0.2	.
Cc1nc(SCC#N)c2c(C)c(C)sc2n1	-5.2	i
COc1cccc(OC)c1C(=O)Nc1cccc(C(C)=O)c1	-0.1	i

Ordered by number of heavy atoms (smallest number first): some entries from above.
SMILES	26S disassembly	VCAM-1 rise
O=C(NCc1cccnc1)c1ccccn1	0.9	i
COCCN(CCOC)S(=O)(=O)c1ccc(C(=O)Nc2nnc(C)o2)cc1	1.3	.
Cn1c(=O)c2cc(S(=O)(=O)NCCC(=O)NCCC3=CCCCC3)ccc2n(C)c1=O	0.2	.

Among those listed so far, ten contain an aryl methoxy group:
SMILES	26S disassembly	VCAM-1 rise
COc1cc(-n2nc(C)c3c2OC(N)=C(C#N)C3c2ccccc2)c(Cl)c(Br)c1O (stereo unspecified)	5.0	i
COc1ccc(OC)c(CCNC(=O)CS(=O)(=O)Cc2nc(-c3ccc(C)cc3)oc2C)c1	-0.1	.
COc1ccc(Cl)cc1NC(=O)CSc1nnc(Cn2c(=O)sc3ccccc32)n1C	-1.0	.
CCOc1ccccc1C1N(c2ccc(OC)cc2)C(=O)C2CCCN21 (stereo unspecified)	5.4	.
COc1ccc(-c2nc(N3CCOCC3)nc3n[nH]c(N)c23)cc1	-0.8	.
COc1cc(=O)[nH]c(SCc2c(F)c(F)c(F)c(F)c2F)n1	-1.2	i
COc1cc(S(=O)(=O)N2CCC(N3CCCCC3)CC2)ccc1-n1cnnn1	0.7	i
COc1ccccc1CNC(=O)CNC(=O)Cn1cnc2ccccc2c1=O	-0.8	.
COc1cc(-n2c(=O)c3ccccc3n(Cc3cccnc3)c2=O)cc(OC)c1OC	-1.1	.
COc1cccc(OC)c1C(=O)Nc1cccc(C(C)=O)c1	-0.1	i

Further records follow:
SMILES	26S disassembly	VCAM-1 rise
COCC(C)NC(=O)c1cc(-c2ccc(O)cc2)on1 (stereo unspecified)	0.9	.
O=C(CCCCn1c(=O)c2ccccc2n(Cc2ccc(F)cc2Cl)c1=O)NCc1ccco1	1.9	.
NC(=O)c1oc2ccc(Cl)cc2c1NC(=O)CN1CCOCC1	-0.3	i
COc1ccccc1-n1c(C)nnc1SCC(N)=O	-3.3	i
O=c1[nH]cnc2nc(-c3ccccc3)c(-c3ccccc3)nc12	0.4	.
CCCCCOC(=O)CSc1nnc(-c2cc(OC)c(OC)c(OC)c2)o1	0.4	i
CSc1ccc(/C=N/n2nnnc2N)cc1	0.0	.
CC(C)(C)OC(=O)N1CC(O)CC1C(=O)OCC(=O)c1ccc(Cl)cc1 (stereo unspecified)	-1.0	i
CCSc1nncn1/N=C/c1ccc(OC)c(OC)c1	-0.7	i
Cc1ccc(/C=c2\sc3nc(-c4cccnc4)nn3c2=O)cc1	1.2	.
CCOC(=O)N1CCN(S(=O)(=O)c2cc3c(cc2C)NC(=O)CO3)CC1	0.0	.
CC(=O)c1ccc(Nc2cc(C)nc3nc(C)nn23)cc1	-1.1	.
CCCOc1ccc(C2C(=O)N(C3CCCCC3)CC(=O)N2CCC)cc1OC (stereo unspecified)	1.1	.
CCCNC(=O)CCNC(=O)c1ccc(C(C)(C)C)cc1	0.7	.
CCOC(=O)N1CCC(NC(=O)C2CCN(S(=O)(=O)c3cccc4cccnc34)CC2)CC1	0.1	i
CC1CCN(C(=O)CSc2nnc(-c3ccc(S(=O)(=O)N4CCOCC4)cc3)n2C)CC1	-1.2	i
COc1ccc(C(C)(C)C)cc1NC(=O)C1C2C=CC(C2)C1C(=O)O (stereo unspecified)	3.7	.
O=C(Cc1cccs1)N(Cc1ccco1)C1(C(=O)NC2CCCC2)CCCCC1	0.3	.
CC1Cc2ccccc2N1S(=O)(=O)c1ccc2c(c1)n(C)c(=O)c(=O)n2C (stereo unspecified)	0.6	i
COc1ccccc1C(=O)Nc1ccc(S(=O)(=O)N2CCCC2)cc1	0.3	i
COc1ccc(C(=O)Nc2cc(Cl)cc(Cl)c2)c(OC)n1	0.4	.
Oc1ccc(Nc2nc(-c3ccc(O)cc3)cs2)cc1	2.5	i
COC(=O)CSc1cc(SCC(=O)OC)c(C#N)c(SCC(=O)OC)c1	-0.3	.
COc1ccccc1/C=c1\sc2nc(-c3ccco3)nn2c1=O	5.0	.
CC(C)(C)n1nc2c(c1NC(=O)c1cccc(C(F)(F)F)c1)CS(=O)C2 (stereo unspecified)	-0.8	.
O=C(Cc1c(F)cccc1Cl)Nc1ccncc1	-3.5	i
CC(=O)Nc1ccc(N2S(=O)(=O)c3ccccc3S2(=O)=O)cc1	-0.6	.
COc1ccc(-n2c(Cc3cccn3C)nnc2SCC(=O)NCc2ccco2)cc1	-0.9	.
OC1(C(F)(F)F)CC(O)(C(F)(F)F)n2nc(-c3ccccc3)cc2N1 (stereo unspecified)	-0.8	.
O=C(CCN1C(=O)c2ccccc2C1=O)NCCN1CCOCC1	1.3	i
CC(C)(C)C1CCc2onc(C(=O)NC3CCCC3)c2C1 (stereo unspecified)	-0.4	.
CCCCC(=O)NC1(C(F)(F)F)C(=O)Nc2c1c(=O)[nH]c(=O)n2Cc1ccco1 (stereo unspecified)	-1.0	.
CCOC(=O)N1CCC(N2C(=O)c3ccc(C(=O)NC4CCCCCC4)cc3C2=O)CC1	-3.9	.
CCOC(=O)c1ccc(CNC(=O)C2CCCCC2C(=O)OCC(F)(F)F)o1 (stereo unspecified)	-4.6	.
O=C(CSc1oc(-c2ccc(F)cc2)nc1S(=O)(=O)c1ccccc1)NCC1CCCO1 (stereo unspecified)	-0.2	.
COC(=O)c1cc2sccc2n1Cc1nc(-c2ccc(OC)cc2)oc1C	1.7	.
O=C(Nc1nc(-c2cccnc2)cs1)c1ccc(S(=O)(=O)N2CCOCC2)cc1	-0.9	.
CNC(=O)CN1C(=O)c2ccccc2S1(=O)=O	-2.0	.
COc1cccc(C2=CC(c3cc(OC)ccc3OC)n3nnnc3N2)c1 (stereo unspecified)	0.6	.
Cc1ccccc1NC(=O)c1ccccc1	0.4	i
CCOC(=O)C1CCCN(C(=O)c2cc3c(=O)n4cccc(C)c4nc3n2C)C1 (stereo unspecified)	-0.2	i
Cc1cc(C(=O)NCc2cccnc2)no1	-1.0	i
Cc1ccccc1NC(=O)c1c(F)c(F)c(F)c(F)c1F	-5.4	i
O=C(CSc1nnc2scc(-c3ccccc3)n12)N1CCN(Cc2ccccc2)CC1	0.2	i
COc1ccc(-n2c(=O)c3ccccc3n(CC(=O)NC3CCCC3)c2=O)cc1	0.2	.
COc1ccc(-n2nnnc2-c2cccc(OC)c2)cc1	-0.9	i
O=[n+]1c2c(n([O-])c3c1CCCC3)CCCC2	0.3	i
CSc1cccc(NS(=O)(=O)c2ccc3c(c2)oc(=O)n3C)c1	-4.0	.
CCN1CCN(CCCNC(=O)c2cc3cc4ccc(OC)cc4nc3o2)CC1	1.7	.
CN(C)c1ccc(-c2noc(-c3ccccc3O)n2)cc1	3.0	.
Cc1ccc(S(=O)(=O)NCc2csc(C)n2)c(C)c1	-1.3	.
CC(Sc1n[nH]c(=O)[nH]c1=O)C(=O)OCc1ccccc1 (stereo unspecified)	3.5	i
C=CCOC(=O)c1sc(N2C(=O)c3oc4ccccc4c(=O)c3C2c2ccco2)nc1C (stereo unspecified)	0.7	.
CC(C)Cc1cc(C(=O)Nc2c(F)cc(F)cc2Br)no1	0.1	i
CC(C)OC(=O)C1C2C=CC3(CN(C(C)c4ccc(Br)cc4)C(=O)C13)O2 (stereo unspecified)	-1.1	.
CCCCOC(=O)CCc1c(C)[nH]c(=O)c(C#N)c1C	1.2	.
CCCCCCn1c(CN2CCCCC2C)nc2c1c(=O)n(C)c(=O)n2C (stereo unspecified)	-0.3	.
CCOc1ccc(S(=O)(=O)Nc2cccc(Cl)c2)cc1	0.8	i
CCCCC(=O)O[C@H]1CC[C@H]2[C@@H]3CCc4cc(O)ccc4[C@H]3CC[C@]12C	0.0	i
COc1ccc(C2CC(=O)C3=C(C2)Nc2ccccc2N(C(=O)C2CC2)C3c2cccnc2)cc1OC (stereo unspecified)	0.5	i
Next section:
SMILES	26S disassembly	VCAM-1 rise
C[C@]12CC[C@@H]3c4ccc(O)cc4CC[C@H]3[C@@H]1CC[C@@H]2OC(=O)CCC(=O)O	0.4	i
CCOc1ccc(-n2c(Cc3cc(=O)[nH]c(=O)[nH]3)nnc2SCC(=O)OC)cc1	0.0	.
O=C(O)CCCC(=O)Nc1nc(-c2ccc(F)cc2)cs1	1.2	i
C=CCn1c(SCc2cc(=O)n3ccsc3n2)nnc1C1CCCCC1	0.8	i
Cc1cc(C)n(-c2nc3ccccc3c(=O)n2OCCOc2ccccc2)n1	-3.3	i
COCc1c(C(N)=O)nnn1-c1nonc1N	-0.5	.
CN(C)S(=O)(=O)N1CCN(C(=O)N(c2ccccc2)c2ccccc2)CC1	-1.7	i
COc1ccc2c(c1)CCc1c(C(=O)N3CCCC3)noc1-2	-0.2	.
COCCN1Cc2cccc(C(=O)N3CCN(c4cc(C)ccc4C)CC3)c2C1=O	?	.
O=C(Nc1ccc2nc(-c3cccs3)[nH]c2c1)c1ccco1	17.0	72.4*
COc1cccc(-c2nc(CS(=O)(=O)CC(=O)N3CCN(C4CCCCC4)CC3)c(C)o2)c1	-2.1	.
CCOCCn1c(CN2CCN(CC)CC2)nc2c1c(=O)n(C)c(=O)n2C	-1.2	i
C=CCn1c(=N)n(CC(=O)OCC)c2ccccc21	-1.1	.
CCOc1ccc(-c2cc(C(=O)N3CCN(c4ccccn4)CC3)c3ccccc3n2)cc1	0.4	i
Nn1cnn(Cc2ccccc2)c1=S	1.6	.
COc1ccc(-n2c(Cc3cccn3C)nnc2SCC(=O)Nc2ccc(C)cc2)cc1	0.0	.

Assay outcomes as filed in PubChem BioAssay.

An excerpt, so the mix of outcomes need not match the whole.
